Compound activity as filed in PubChem.
HNF4A DNA FP: change in binding of human HNF4 alpha to DNA; P41235; 360,000 compounds, 0.3% hits; HNF4a-FITC DNA binding, fluorescence polarization, 1 h; activity change, % at 10 µM; in the data active = activity change above about 30%, passing the limit was not always enough;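 note: controls were the assay level and a saturating level of protein; the project sought stronger binding though the title names inhibitors; some compounds called inactive have numbers as strong as hits; positive values seem to mean higher polarization but the record does not say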
Target sequence (P41235 whole entry, looked up): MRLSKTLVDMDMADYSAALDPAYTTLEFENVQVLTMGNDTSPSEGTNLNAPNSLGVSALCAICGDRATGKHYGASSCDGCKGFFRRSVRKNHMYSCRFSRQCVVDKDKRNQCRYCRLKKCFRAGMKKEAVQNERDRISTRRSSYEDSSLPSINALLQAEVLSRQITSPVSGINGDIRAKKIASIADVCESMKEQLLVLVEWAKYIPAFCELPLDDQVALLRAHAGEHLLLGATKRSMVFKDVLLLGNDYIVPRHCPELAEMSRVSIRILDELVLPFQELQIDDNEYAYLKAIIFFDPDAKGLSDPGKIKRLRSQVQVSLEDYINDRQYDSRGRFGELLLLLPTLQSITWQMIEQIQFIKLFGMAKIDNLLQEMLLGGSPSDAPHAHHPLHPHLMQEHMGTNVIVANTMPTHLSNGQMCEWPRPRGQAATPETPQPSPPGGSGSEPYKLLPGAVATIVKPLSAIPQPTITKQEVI
LANA-H2B inh: blocks KSHV LANA binding to histone H2A/H2B. inhibition, % (no concentration beside the values). 320,000 compounds, 0.6% hits. cell-free LANA-H2A/H2B peptide, fluorescence polarization; in the data active = inhibition mostly above about 10%, no sharp cut-off; inactive = mostly below about 6.7%;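 note: stock transfer was 7.5 nL into about 10 µL; 0% = median of vehicle wells and 100% = median of positive control wells; one replicate is shown; the record names a cut of 25% in any replicate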
A1 inh: inhibitors of the anti-apoptotic protein A1, read as caspase activation | MEF A1-2A-BIM cells, Caspase-Glo 3/7 luminescence, 3 h; percent of clofoctol response, vehicle zero | caspase activation, % (concentration not given with the values) | 330,000 compounds, 0.066% hits;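 active = over half of replicate activation scores above 10%, or exactly half above 10 with the replicate mean above 10; inconclusive = replicate mean below 10 yet half the replicates above 10; inactive = over half of replicates below 10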;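 note: wells of about 30 µL received 50 nL stock; many hits fall short of the cut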
Ecoli growth: blocks Escherichia coli growth; OD600, 23 h; hits give low values; OD600 absorbance (concentration not given with the values); 330,000 compounds, 0.21% hits;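 active = OD600 absorbance below the run mean of sample wells minus 3.6 SD, in any replicate, cut at about 0.56 in these data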;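 note: stock transfer was 300 nL into about 60 µL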
UCH37 DUB inh: blocks the human deubiquitinase UCH37; 330,000 compounds, 0.33% hits; Q9Y5K5; purified proteasome/UCH37, Ub-AMC cleavage fluorescence; inhibition, % (no concentration beside the values); AID 588478;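 active = mean of two replicates above 20%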;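 note: 0% = compound-free wells with enzyme and 100% = wells lacking proteasome; stock transfer was 100 nL into about 20 µL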
Target sequence (Q9Y5K5 whole entry, looked up): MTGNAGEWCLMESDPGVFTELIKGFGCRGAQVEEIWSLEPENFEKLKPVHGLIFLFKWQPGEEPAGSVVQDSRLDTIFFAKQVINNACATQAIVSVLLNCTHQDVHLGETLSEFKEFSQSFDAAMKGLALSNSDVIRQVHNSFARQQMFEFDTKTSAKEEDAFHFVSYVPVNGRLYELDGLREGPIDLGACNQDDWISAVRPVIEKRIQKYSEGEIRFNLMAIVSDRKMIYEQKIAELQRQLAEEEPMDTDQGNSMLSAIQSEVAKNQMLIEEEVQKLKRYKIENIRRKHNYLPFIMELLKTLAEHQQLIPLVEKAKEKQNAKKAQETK
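Schedule: 30 min plus 25 min, room temperature / Material: human UCH37 within purified proteasomes / Technique: AMC fluorescence intensity at 355/460 nm / Buffer or medium: pH 7.4 Tris-HCl (50 mM) with ovalbumin, ATP-MgCl2, DTT / Controls: wells without proteasome as full block, compound-free enzyme plus substrate as uninhibited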
B2AR ag: human beta-2 adrenergic receptor agonism by FAP; P07550; Am2.2-beta2AR cells, FAP receptor internalization, flow cytometry; reference of the scale not given here; response, % (concentration not given with the values); 340,000 compounds, 0.43% hits;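 active = response above a set limit, near 3 SD of response in nonfluorescent compounds, cut at about 42% in these data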;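 note: stock transfer was 100 nL into about 11 µL; a reference agonist was the positive control; negative values mostly stem from fluorescent compounds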
Vif A3G: inhibitors of Vif binding to APOBEC3G peptide, primary screen, biochemical, TR-FRET, GST-Vif 1-94, biotin-A3G peptide, dose response retest (AID 1117319); TR-FRET GST-Vif / biotin-A3G peptide binding; higher % means a stronger effect; test concentration not given here; strong numbers were not always called active; 260,000 compounds, 0.57% hits; one-dose inhibition, %; IC50 in µM for titrated hits;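 active = above the screen mean plus three standard deviations and confirmed in dose response; inconclusive = results disagree or hit not tested in dose response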;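 note: Vif residues 1-94 fused to GST binding biotinylated APOBEC3G peptide 110-148; 0% = full assay without inhibitor and 100% = GST in place of GST-Vif; retest series ran down from 100 µM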
* marks the source's active call; other numbers are inactive results; u = inconclusive; x = no result given; & = joins results of further samples.

SMILES	HNF4A DNA FP	LANA-H2B inh	A1 inh	Ecoli growth	UCH37 DUB inh	B2AR ag	Vif A3G
Cc1oc2c(CN3CCCC3)c(O)ccc2c(=O)c1-c1ccccc1	3.6	-4.6	-0.5	0.734	-477.6	-1.4	5.9%
CC1(C)Cc2c(ccc3ccccc23)/C(=C/C#N)N1	0.6	-1.3	1.1	0.7	2.8	-12.0	5.6%
Cc1ccc2c(c1)N(CC(=O)NC1CCCCCC1)C(=O)c1cccnc1O2	-0.7	-4.5	1.9	0.699	1.1	-1.8	-5.1%
CC(C)(CN=C1NS(=O)(=O)c2ccccc21)CNC(=O)CN1C(=O)c2ccccc2C1=O	-3.9	-3.7	0.0	0.74	-3.1	-10.5	19.4%
COC(=O)/C=C/c1ccsc1NC(C)=O	-1.6	-4.9	1.2	0.674	3.3	11.9	2.5%
CC(C)OC(=O)C1=C2SCC(=O)N2C(N)=C(C#N)C1	3.2	1.4	0.0	0.68	0.6	2.6	0.9%
CC1(C)C(=O)OC(/C=C\c2ccccc2)C(C)(C)C1=O (stereo unspecified)	-1.3	4.1	-1.2	0.665	1.3	1.7	3.0%
O=C1NN(c2ccc(F)cc2)C(=O)/C1=C\c1cnn(-c2ccccc2)c1	x	2.4	0.8	0.702	1.5	x	16.5%
CCCc1cc(-c2ccc(O)c(OCC)c2)c(C#N)c(N)n1	4.8	9.5	0.0	0.644	-8.4	-20.9	-1.9%
CC1(C)Cc2cccc(OCC(=O)OCc3nnc(-c4ccccc4)o3)c2O1	3.2	-3.1	-0.6	0.679	-1.4	-2.0	-2.8%
O=C(CSc1nc2ccccc2[nH]1)NCCc1ccc(Cl)cc1	-4.8	-0.7	-0.3	0.653	4.7	-3.7	x
O=C(CN1C(=O)c2ccccc2S1(=O)=O)Nc1ccccc1C(=O)NCc1ccco1	-1.7	-2.4	-0.6	0.743	2.4	3.9	2.1%
COc1ccc(CN2CCC(C(=O)c3ccc(F)cc3)CC2)cc1	5.7	0.6	0.0	0.706	0.6	11.3	x
Cn1nc(C(=O)NCc2ccc(Cl)cc2)c2c1-c1ccccc1S(=O)(=O)C2	1.0	-4.4	-0.3	0.694	1.8	-8.7	18.8%
Cc1cc(NC(=O)NC2(C(F)(F)F)Oc3ccc(Cl)cc3O2)no1 (stereo unspecified)	1.3	5.8	0.5	0.661	4.5	7.8	2.4%
CC(O)(CC(=O)CC(=O)c1ccccc1)c1ccccc1 (stereo unspecified)	2.2	x	x	0.638	1.3	-2.6	9.1%
Cc1cccc(C)c1OCc1cc(C(=O)N2CCN3CCCC3C2)no1 (stereo unspecified)	6.6	5.4	0.7	0.7	-1.6	-3.9	x
CCOc1ccc(NC(=O)Nc2cc(OCC(F)(F)F)cc(OCC(F)(F)F)c2)cc1	6.9	-4.7	-0.4	0.699	0.8	1.3	0.6%
COc1ccc(N2CCN(C(=O)C3CCCN(c4ncnc5c4nc4n5CCCCC4)C3)CC2)cc1 (stereo unspecified)	0.1	5.7	-0.7	0.67	2.0	5.4	5.7%
COc1ccc(NC(=O)CC2C(=O)N(c3cccc(C)c3)C(=O)N2C2CCCCC2)cc1 (stereo unspecified)	0.9	-1.4	0.1	0.742	1.7	-2.0	0.0%
CC(C)C1N=C2c3ccccc3N=C(SCc3cc(=O)n4cc(Cl)ccc4n3)N2C1=O (stereo unspecified)	1.1	3.6	0.5	0.743	-17.7	-12.9	-0.4%
COc1cccc(CN2CC(C(=O)N3CCCC3)CCC2=O)c1 (stereo unspecified)	-1.7	4.7	0.5	0.684	5.4	-15.0	x
COc1cc(CCC(=O)N2CCN(c3ccccc3)CC2)cc(OC)c1OC	0.8	-12.5	-0.3	0.702	3.1	-3.9	x
O=C(Nc1ccc(F)cc1)NC1CCN(Cc2nnnn2Cc2ccco2)CC1	4.6	0.2	0.0	0.662	0.2	-10.1	24.8%
O=S(=O)(Nc1ccc2c(c1)OCO2)c1ccccc1	-2.0	-1.7	-0.6	0.671	0.8	0.6	32.0%
Cc1cc(C(=O)Nc2ccc(N3CCCC3)c(Cl)c2)ccc1[N+](=O)[O-]	-3.0	4.0	-3.0	0.719	5.5	12.7	x
O=C(c1ccccc1)c1ccc(C(=O)N2CCN(c3ccccc3)CC2)cc1	-0.5	-12.9	0.4	0.69	5.0	-8.4	x
CC(C)c1ccc(NC(=O)COC(=O)[C@@H]2CCCN2C(=O)c2cccs2)cc1	-0.7	-1.3	-0.4	0.714	0.5	-2.0	x
O=C(COc1ccccc1Cl)N(Cc1ccco1)C1CCS(=O)(=O)C1 (stereo unspecified)	-4.3	-3.4	0.5	0.616	1.8	0.5	5.7%
Cc1ccc(SC(CC(=O)c2ccc(C)cc2)C(=O)O)cc1 (stereo unspecified)	4.7	-5.3	-1.2	0.716	2.5	12.6	u
O=C(CSc1nnc(-c2ccccc2)c(-c2ccccc2)n1)N1CCOCC1	-0.7	-0.5	1.6	0.679	0.4	-1.1	7.7%
COc1ccc2cc3cc(C(=O)N4CCCC(C)C4)oc3nc2c1 (stereo unspecified)	-0.6	3.1	-7.9	0.677	-76.3	5.0	x
CCOc1ccc(C(=O)Nc2ccc(NC(=O)c3ccco3)c(Cl)c2)cc1Cl	-1.0	7.3	0.6	0.696	-5.9	5.2	20.9%
O=C(NCC(=O)N(c1ccccc1)C(C(=O)NCC1CCCO1)c1ccccc1)c1cccs1 (stereo unspecified)	0.4	-2.7	-0.4	0.666	-0.1	-16.3	x
Cc1nnc(NC(=O)c2ccc(S(=O)(=O)N3CC(C)OC(C)C3)cc2)o1 (stereo unspecified)	1.0	-7.0	-1.0	0.699	2.2	-7.0	11.7%
CCN(CC)CCN1C(=O)C(=O)/C(=C(/O)c2cnn(-c3ccccc3)c2C)C1c1ccc(C)o1 (stereo unspecified)	3.3	-1.5	-0.1	0.705	13.5	-8.1	12.1%
CCc1c(C)[nH]n(-c2nc(-c3cccc([N+](=O)[O-])c3)cs2)c1=O	1.3	-0.3	0.3	0.654	-0.1	0.6	11.7%
C/C(=N\N1CCN(Cc2ccccc2Cl)CC1)c1ccc(F)cc1	1.5	2.7	0.6	x	x	-7.2	10.3%
Cc1c(S(=O)(=O)N2CCN(c3ccc(F)cc3)CC2)c(=O)n(C)c(=O)n1C	-0.2	-0.1	0.2	0.688	2.7	4.0	x
CCN1CCN(Cc2ccc(NC(=O)c3ccc(C)c(/C=C/c4cnc(Nc5cc(N6CCNCC6)nc(C)n5)cn4)c3)cc2C(F)(F)F)CC1	125.3&121.8	-11.0	0.1	x	-99.0	-54.3	x
N#Cc1ccc(/C=C2\CCCCn3c2nc2cc(C(=O)O)ccc2c3=O)cc1	4.2	0.1	0.1	0.7	4.4	-9.6	x
COc1cnc(-c2ccccn2)nc1Sc1ccccc1Cl	2.5	1.3	-0.6	0.645	3.0	4.0	-0.3%
O=S1(=O)C=C(SCCN2CCCC2)c2ccccc21	1.6	4.8	-0.3	0.695	1.1	4.2	1.0%
COc1ccc2oc(=O)c(C(=O)Nc3ccccc3O)cc2c1	4.4	5.4	-7.4	0.702	4.0	15.7	1.9%
C/C(=N\Nc1nccnc1Cl)c1ccc(O)c(C)c1	0.1	-3.1	-3.2	x	x	11.3	8.1%
Cc1cc(NC(=O)C(C)SCC(=O)NCc2ccc(F)cc2)no1 (stereo unspecified)	-1.6	x	x	0.666	0.5	0.8	5.3%
Cc1cc(C)c(NC(=O)c2ccccc2C(=O)c2ccccc2)c(C)c1	-1.0	1.1	0.6	0.66	3.5	1.0	x
O=c1c2cc([N+](=O)[O-])ccc2nc(CN2CCN(c3ccccn3)CC2)n1-c1ccccc1F	-6.6	-2.5	0.1	0.685	5.6	-6.4	u
O=C1NCCNC1c1ccccc1 (stereo unspecified)	1.3	x	x	0.679	0.5	1.8	-5.2%
Cc1cccc(CN2CCC(C(=O)Nc3cccc(-c4cscn4)c3)CC2)n1	2.4	-7.8	0.0	0.682	2.9	-2.4	x
CCOc1ccccc1-c1cc(C(=O)N/N=C/c2ccc(O)c(OC)c2)c2ccccc2n1	0.2	1.4	1.3	x	x	5.6	-6.8%
COc1cc(/C=C2\SC(=S)N(CCC(=O)Nc3ccc(O)cc3)C2=O)cc(OC)c1OC	2.4	1.6	-0.4	0.649	5.5	12.3	-3.9%
Cc1ccccc1-n1c(C)nnc1SC(C)C(=O)NCC1CCCO1 (stereo unspecified)	3.5	x	x	0.654	1.8	-1.9	4.8%
O=C(/C=C\Nc1ccccc1Br)c1ccc2c(c1)OCO2	-0.6	4.2	-7.0	0.72	0.3	6.5	-3.4%
COc1cc(CN2CCCC(C(=O)Nc3ccccc3Oc3cccnc3)C2)ccc1F (stereo unspecified)	14.5	0.5	3.0	0.725	2.1	-1.1	x
Cc1nc(SCC(=O)NCC2CCCO2)c2cc(-c3ccccc3)sc2n1 (stereo unspecified)	8.2	-2.0	-0.9	0.689	-1.1	-5.7	x
CN(C)S(=O)(=O)c1ccc(NC(=O)CN2CCCC2c2ccc3c(c2)OCCCO3)cc1 (stereo unspecified)	1.1	x	x	0.659	2.9	-1.1	5.5%
Cn1c(SCC(=O)N2c3ccccc3CCc3ccccc32)nnc1-c1cc2ccccc2cc1O	3.3	-2.2	-0.1	0.734	2.9	2.7	x
O=C(NC(NC(=O)c1ccccc1)c1ccccc1)c1ccccc1	-2.4	-3.7	0.4	0.637	0.9	3.9	4.9%
CC(C)NC(=O)c1onc(CSc2cccc(F)c2)c1C(=O)O	-0.2	4.6	-0.4	0.677	2.4	0.8	u

In another format: entries from further up
COc1cc(/C=C2\SC(=S)N(CCC(=O)Nc3ccc(O)cc3)C2=O)cc(OC)c1OC
  HNF4A DNA FP: 2.4
  LANA-H2B inh: 1.6
  A1 inh: -0.4
  Ecoli growth: 0.649
  UCH37 DUB inh: 5.5
  B2AR ag: 12.3
  Vif A3G: -3.9%
Cc1ccccc1-n1c(C)nnc1SC(C)C(=O)NCC1CCCO1 (stereo unspecified)
  HNF4A DNA FP: 3.5
  LANA-H2B inh: x
  A1 inh: x
  Ecoli growth: 0.654
  UCH37 DUB inh: 1.8
  B2AR ag: -1.9
  Vif A3G: 4.8%

Next compounds
SMILES	HNF4A DNA FP	LANA-H2B inh	A1 inh	Ecoli growth	UCH37 DUB inh	B2AR ag	Vif A3G
CCCN1C2CCCC1CC(NC(=O)c1cc(OC)cc(OC)c1)C2 (stereo unspecified)	-2.7	0.7	-0.1	0.699	1.4	-9.1	x
C=CCNC(=O)CN(c1ccc(F)c(Cl)c1)S(C)(=O)=O	1.0	-0.6	-0.6	0.73	-2.4	5.3	3.9%
COc1cccc(CC(=O)N[C@@H](CCSC)c2nc3ccccc3[nH]2)c1	0.9	4.6	0.5	0.682	5.3	-4.8	-10.5%
Cc1cccc(C)c1N1C(=O)C2ON(c3ccccc3)C(c3ccncc3)C2C1=O (stereo unspecified)	0.0	-5.4	0.7	0.7	6.6	6.2	63.6%
COc1ccc(OC)c(C(O)c2coc3ccc(O)c(CN(C)C)c23)c1 (stereo unspecified)	0.8	-0.2	-0.3	0.719	1.3	-2.2	-1.8%
CCN(CC)S(=O)(=O)c1ccc(N2CCN(C)CC2)c(NC(=O)CSCC(=O)Nc2cccc(C)c2)c1	-2.0	-2.7	0.4	0.678	1.1	-3.5	-5.6%
CC(=O)N1CCN(CC(=O)Nc2cc(S(=O)(=O)N3CCOCC3)ccc2C)CC1	0.5	2.7	1.6	0.694	4.9	2.5	-1.7%
C[C@H](CO)N1C[C@H](C)[C@@H](CN(C)C(=O)NC2CCCCC2)Oc2ccc(NC(=O)Nc3ccccc3)cc2C1=O	1.5	-2.4	-4.0	x	x	-11.4	x
COc1ccccc1C(=O)NCC(c1cccnc1)N(C)C (stereo unspecified)	5.2	1.9	0.0	0.705	0.9	-0.9	-3.7%&-4.0%
CCOc1cc2[nH]c(=O)n(Cc3ccc(C(=O)NCCCN4CCCC4=O)cc3)c(=O)c2cc1OCC	4.5	2.1	0.3	0.708	-9.1	6.5	29.2%
